# High-throughput results (PubChem)
# NPR1 antag – blocks ANP-stimulated signaling of human Npr1 receptor; HEK293 hNpr1 GloSensor cGMP, ANP-stimulated luminescence; Potency, µM (highest dose often 46.3 µM), for the others: top-dose activity change, negative = inhibition, actives largely listed as inhibitors; 1.6% of 76,000 active; AID 1347048; active = well fitted inhibition curve with a large enough effect; inconclusive = small, poorly fitted or top-dose-only effect; inactive = no such curve, though single readings can be large or run the other way;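 also: nearly all actives have a fitted effect of over 60% in size; nearly all hits also lower the signal before the agonist is added; a reference antagonist and vehicle were the controls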
# Target sequence (P16066 whole entry, looked up): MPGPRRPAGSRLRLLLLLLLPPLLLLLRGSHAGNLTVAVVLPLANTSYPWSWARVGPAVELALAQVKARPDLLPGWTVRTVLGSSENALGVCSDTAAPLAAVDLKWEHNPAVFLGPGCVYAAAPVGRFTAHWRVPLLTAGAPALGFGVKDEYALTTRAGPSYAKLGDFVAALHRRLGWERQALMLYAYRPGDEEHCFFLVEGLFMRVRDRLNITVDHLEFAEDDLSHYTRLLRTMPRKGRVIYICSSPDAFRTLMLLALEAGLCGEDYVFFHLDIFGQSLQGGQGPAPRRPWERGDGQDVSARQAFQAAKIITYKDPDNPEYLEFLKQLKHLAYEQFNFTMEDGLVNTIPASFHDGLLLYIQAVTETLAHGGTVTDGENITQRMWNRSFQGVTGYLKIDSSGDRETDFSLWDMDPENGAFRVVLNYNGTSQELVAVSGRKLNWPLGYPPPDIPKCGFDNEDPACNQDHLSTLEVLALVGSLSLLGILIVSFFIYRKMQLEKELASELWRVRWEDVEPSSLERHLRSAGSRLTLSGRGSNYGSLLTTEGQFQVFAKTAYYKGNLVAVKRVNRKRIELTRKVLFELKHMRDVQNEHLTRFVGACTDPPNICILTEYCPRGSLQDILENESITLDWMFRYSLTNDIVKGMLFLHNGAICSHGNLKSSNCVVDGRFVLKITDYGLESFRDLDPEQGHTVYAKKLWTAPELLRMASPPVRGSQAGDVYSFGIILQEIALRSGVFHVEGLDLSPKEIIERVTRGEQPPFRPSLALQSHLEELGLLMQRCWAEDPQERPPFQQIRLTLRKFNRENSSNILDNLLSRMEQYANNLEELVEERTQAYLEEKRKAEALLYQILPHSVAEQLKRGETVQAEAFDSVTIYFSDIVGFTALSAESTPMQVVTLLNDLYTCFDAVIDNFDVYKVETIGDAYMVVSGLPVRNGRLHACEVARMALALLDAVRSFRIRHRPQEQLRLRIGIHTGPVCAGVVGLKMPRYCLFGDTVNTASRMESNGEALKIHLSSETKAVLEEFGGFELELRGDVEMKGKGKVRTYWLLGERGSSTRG
#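 HEK293 cells stably expressing human Npr1 and cGMP GloSensor pGS-40F, loaded 2 h with 2% GloSensor reagent, given compound 30 min at room temperature. Luminescence read before and 20 min after 0.1 nM hNppA.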
# The depositor's hits bear a star; u = inconclusive; [ ] = dose if it differs, or a comment. % is scaled to controls: 0 for no effect and ±100 for the full control effect; potency is read from the fitted curve at half-maximal effect. Only part of the results is shown; the hit share may differ from the screen's.
smiles	NPR1 antag
CCn1nccc1C(=O)N1CCCCCC1c1nnc(-c2ccccc2)o1 (stereo unspecified)	-1%
O=C1COc2ccc(NS(=O)(=O)c3cccc(Cl)c3)cc2CN1C1CCCc2ccccc21 (stereo unspecified)	-19%
CN1CC[C@H]2CN(S(=O)(=O)c3cc(C(=O)O)c(Cl)cc3F)C[C@H]21	0%
CN1C(=O)CCC2(CNC(=O)c3cccn3C)CCC=C12 (stereo unspecified)	1%
CC1CCC(NC(=O)c2cc3n(n2)CC(c2ccc4c(c2)OCO4)OC3)CC1 (stereo unspecified)	-9%
O=C(CCC1CCN(S(=O)(=O)c2ccccc2)CC1)NCc1ccccn1	3%
COc1ccc(CN[C@H]2[C@H](O)[C@H](O)C[C@@H]2c2ccc(N3CCOCC3)nc2)cn1	-7%[70.6 µM]
Cc1ccc(C2NC(=O)N(CC(=O)Nc3ccccc3C(C)C)C3=C2C(=O)OC3)cc1 (stereo unspecified)	-7%
O=C(c1cccc(Br)c1)N1CCN(C2CCN(Cc3ccccn3)C2=O)CC1 (stereo unspecified)	-1%
CCOc1ccc(C(=O)NCCn2cccc2-c2nc(-c3ccccc3)no2)cc1OCC	-3%
O=C(c1cc2ccccc2[nH]1)N1CCC2(C1)NC(=O)N(Cc1ccccc1)C2=O (stereo unspecified)	u
Cc1ccc(-c2[nH]ncc2CN2C[C@@H](CO)[C@H](NC(=O)C3CC3)C2)cc1	2%
O=C(CN1C(=O)NC2(CCCCC2)C1=O)Nc1ccc2c(c1)CCC2	2%
Cc1ccccc1S(=O)(=O)N1C[C@@H]2CCCN3CCC[C@@H]([C@H]23)[C@H]1CCCC(=O)NCC1CC1	-16%
CCn1c2c(c(=O)n1-c1ccccc1)CCN(Cc1ccccn1)C2	-2%[70.6 µM]
O=C1CC(c2ccccc2)N(Cc2ccncc2)CCCN(C(=O)Nc2ccccc2F)CCN1 (stereo unspecified)	4%
COc1ccccc1N1CCN(C(=O)c2nnn3cc(-c4ccc(F)cc4)[nH]c(=O)c23)CC1	2%
CC(C)N(C)Cc1nnnn1CC(=O)NCc1nc(-c2ccccc2)cs1	0%
Cc1occc1-c1nc2ccncc2[nH]1	7%[70.6 µM]
Cc1ccccc1CC(=O)NC1CCN(c2cc(-c3ccccc3)[nH]n2)CC1	-11%
CN1c2cc(C(=O)Nc3ccc(F)c(F)c3)ccc2C(=O)N2CCCCC21 (stereo unspecified)	3%
Cc1ccc(NC(C)(C)C(=O)N2CCC3(CC2)CN(C)CCN3C)cc1	2%
O=C(c1cccc(Cl)c1)N1CCC(N2CCCCCC2=O)CC1	-1%[70.6 µM]
Cc1ccc2c(N3CCC(CO)(CN4CCCC4)CC3)ccnc2c1C	1%
O=C1CCN(Cc2cccc(F)c2)CCCCCCN1	-3%
COCC(=O)N[C@H]1C[C@@H](CO)N(Cc2cccs2)C1	-10%
COCCOCC(=O)N1CCC(N2CC3CC(C2)[C@H]2CCCC(=O)N2C3)CC1 (stereo partly specified)	6%
CCCS(=O)(=O)N1CCCC(c2nc(C(C)C)no2)CCNC(=O)CC1 (stereo unspecified)	-1%
COc1ccc(-c2cc(N3CCC(NC(=O)c4ccccc4Br)C3)n[nH]2)cc1 (stereo unspecified)	-9%
COc1ccc(-c2cc(N3CCCC(NC(=O)c4cc5ccccc5[nH]4)C3)n[nH]2)cc1 (stereo unspecified)	-18%
O=C(NCc1nc(-c2cccc(F)c2)c(-c2ccccn2)[nH]1)C1CCOC1 (stereo unspecified)	0%
CC1Oc2ccc(NC(=O)C3CCCC3)cc2CN(Cc2ccccc2Cl)C1=O (stereo unspecified)	-18%
CN(C)C(C(=O)N1CCC(O)(c2ccccc2)CC1)c1cccc(F)c1 (stereo unspecified)	7%
COc1cccc(C(=O)NC2CCN(C(=O)c3cc4c(=O)[nH]c(C)cn4n3)CC2)c1	2%
Oc1ccccc1CN1C[C@H](O)C[C@H]1c1nc(-c2ccncc2)no1	2%[70.6 µM]
CC#CCn1cc2c3c(cccc31)[C@H](CC(C)C)N[C@H](C(=O)NCCN(C)C)C2	-11%[70.6 µM]
CCOC(=O)C1=C(C)N=C2SC=C(CC(=O)N3CCOCC3)N2C1c1cccc([N+](=O)[O-])c1 (stereo unspecified)	u
CCOc1ccc(CN2CCc3nc(N(C)C)[nH]c(=O)c3CC2)cc1OC	4%
COCc1noc([C@@H]2CC(F)(F)CN2C(=O)C(C)C)n1	-1%
Clc1cc(NC2CCCCC2)n2nccc2n1	5%[70.6 µM]
O=C(c1nc(-c2ccccc2)c2ccccn12)N1CCCC1	2%[70.6 µM]
CCN1CCN(CCCN2CC3(CCN(C(=O)C4CCOC4)CC3)OC2=O)CC1 (stereo unspecified)	2%
Cn1cnc(S(=O)(=O)N2CCCC(C(=O)NC3CCCCC3)CCNC(=O)CC2)c1 (stereo unspecified)	2%
O=C(CCC1CCCC1)NCc1nnc2cc(-c3nc(C4CC4)no3)ccn12	4%
O=C1CCC(C(=O)NC(CCn2cncn2)c2ccccc2)=NN1 (stereo unspecified)	-2%
CN(C)C(=O)c1ccnc(-c2nnc3ccc(Nc4ccc(F)c(Cl)c4)nn23)c1	2%[70.6 µM]
COCCNC(=O)[C@@H]1C[C@H](Oc2ccccc2)CN1C(=O)c1cnccn1	-2%
O=c1cc(N2CCOCC2)oc2c(Nc3ccccn3)nccc12	5%[70.6 µM]
Cc1cccc(C(=O)N2C[C@@H](CO)[C@H](c3nc(C4CC4)no3)C2)n1	3%
Cc1nocc1C(=O)N1C[C@@H](CO)[C@H](c2ccccn2)C1	3%
C=CCNC(=O)Nc1nc2c(s1)C[C@]1(C)CC[C@@H]3[C@H](OC(=O)[C@H]3C)[C@H]1[C@@H]2C	-19%[70.6 µM]
O=C(c1cccc(Cl)c1)N1CCC2(CC1)Cc1ccccc1NC2=O	22%
CSCC[C@@H]1NC(=O)c2cc(NC(=O)Cn3ccc4ccccc43)ccc2NC1=O	-16%
O=C(N[C@H]1CCN2C(=O)c3ccccc3NC(=O)[C@H]12)c1cccs1	-8%[70.6 µM]
O=C1NC2(CN(Cc3ccc(OC(F)(F)F)cc3)C2)Oc2ccccc21	-6%
CCCn1c(C)cnc1C1CCN(S(=O)(=O)c2cn(C)cn2)C1 (stereo unspecified)	2%
CCn1ncc(N2CCCC(CC(=O)N(C)Cc3ccccc3)C2)cc1=O (stereo unspecified)	0%
CN1CCC(N2C[C@@H](CO)[C@H](c3nc(-c4ccncc4)no3)C2)CC1	2%
COc1ccc(OC2CCN(C(=O)C3CC3)CC2)c(C(=O)NCCCN2CCOCC2)c1	4%
CCNC(=O)N(C1CC1)C1CCOC2(CCN(C(=O)c3cccc4nccnc34)CC2)C1 (stereo unspecified)	5%

# Arranged by length of the SMILES (lowest first): part of the list above
smiles	NPR1 antag
Cc1cccc(C(=O)N2C[C@@H](CO)[C@H](c3nc(C4CC4)no3)C2)n1	3%
CCNC(=O)N(C1CC1)C1CCOC2(CCN(C(=O)c3cccc4nccnc34)CC2)C1 (stereo unspecified)	5%
C=CCNC(=O)Nc1nc2c(s1)C[C@]1(C)CC[C@@H]3[C@H](OC(=O)[C@H]3C)[C@H]1[C@@H]2C	-19%[70.6 µM]

# Further compounds:
smiles	NPR1 antag
O=C(NC[C@H]1OC[C@@H](NCc2ncc[nH]2)[C@@H]1O)C1CCCC1	0%[70.6 µM]
COc1ccc(C)cc1NC(=O)CN1C(=O)NC2(CCCCC2)C1=O	-5%
COc1ccccc1CC(=O)N1CCCc2ncc(C(=O)Nc3cccc(F)c3)cc21	32µM*
Cn1c(=O)[nH]cc(CC(=O)N2C[C@H](C3CC3)[C@@H](N)C2)c1=O	5%
O=C([C@@H]1C[C@H](Oc2ccccc2)CN1C(=O)c1ccc2ccccc2n1)N1CCOCC1	3%
COCCC(=O)N1CCC2(CC1)NCCc1c2[nH]c2ccc(OC)cc12	1%
CCC(C)NC(=O)C1COC2(CCN(C(=O)CC(C)(C)C)CC2)N1C(=O)c1cccc(OC)c1 (stereo unspecified)	4%
COc1ccc(NC(=O)[C@@H]2C[C@@H](c3ccc(F)cc3)N([S+](=O)([O-])c3ccccc3)C2)c(C)c1	5%
NC(=O)c1cc2c(nc1N1CCC3(CCCN(CC4CCC4)C3)C1)CCC2 (stereo unspecified)	5%
CN(Cc1ccccc1)C(=O)c1cccc2c1CCN2C(=O)Nc1ccccc1	8.9µM*
C[C@]1(CO)[C@H]2Cc3sc(NC(=O)c4cccs4)nc3[C@@H](CC(=O)O)[C@]2(C)CC[C@H]1O	6%
Cc1nc2cccnc2n1CC1CCCN(C(=O)Nc2ccc3c(c2)OCCO3)C1 (stereo unspecified)	2%
COc1ccc(Cn2c3c(c(=O)n2Cc2ccccc2)CCN(C(=O)C2CCOCC2)C3)cc1	4%
O=C(Cc1c(F)cccc1Cl)NC1CCc2n[nH]c(=O)n2CC1 (stereo unspecified)	1%
Clc1cc(NC2CCOCC2)n2nccc2n1	7%[70.6 µM]
COc1ccc(-c2noc(-c3nc(-c4ccc(N(C)C)cc4)no3)n2)cc1OC	-2%
O=c1ncn(CC2CC2)c2ccc(-c3ccc(Cl)cc3)nc12	-13%[70.6 µM]
CCCC(=O)NCCc1noc(-c2ccccc2)n1	0%
O=C(CN1CCCCCC1)N1C[C@@H](CO)[C@H](c2ccncc2)C1	-5%
COc1ccc(CC(=O)N[C@H](C)c2c(-c3ccc(F)cc3)noc2C(=O)O)cc1	4%[70.6 µM]

# 3 compounds out of the list above, ordered by the value under NPR1 antag, highest first.
SMILES | NPR1 antag
CN1CCC(N2C[C@@H](CO)[C@H](c3nc(-c4ccncc4)no3)C2)CC1 | 2%
CCCC(=O)NCCc1noc(-c2ccccc2)n1 | 0%
CC1Oc2ccc(NC(=O)C3CCCC3)cc2CN(Cc2ccccc2Cl)C1=O (stereo unspecified) | -18%

# Following part:
smiles	NPR1 antag
O=C(Cn1cccc1-c1nc(-c2ccccc2)no1)N1CCN(c2ccccc2F)CC1	2%
c1ccc(Nc2cc3c(cn2)NCCN(Cc2cccs2)C3)cc1	-9%[70.6 µM]
COc1ccc(Cl)cc1-c1ccc2c(c1)C(=O)N1CCN(C(=O)CSC)C[C@@H]1C(=O)N2	6%
CCOC(=O)C1(Cc2ccc(Cl)cc2)CCN(C(=O)c2cc(C)oc2C)CC1	13µM*
O=C([C@H]1CCC[C@H](O)C1)N1CCN(c2ccnc3nncn23)CC1	4%
Cn1nccc1CCC(=O)N1CCN(C(=O)C2CCC2)[C@@H]2CS(=O)(=O)C[C@@H]21	1%
COc1ccccc1-n1cnc2cccnc21	0%[70.6 µM]
COc1ccccc1CN1CCCC(CN(CCN(C)C)C(=O)c2ccccc2OC)C1 (stereo unspecified)	0%
Cc1ccc(NC(=O)Cn2c(C)cc3nc4n(c(=O)c32)CCCCC4)c(C)c1	3%
O=C(CN1C(=O)NC2(CCOCC2)C1=O)Nc1ccc(F)cc1	22%
Cc1nn(C)c2nc(NCCCC3CCOC3)sc12 (stereo unspecified)	1%
COc1cccc(NC(=O)NC[C@H]2O[C@@H](CC(=O)N3CCN(c4ccc(F)cc4)CC3)[C@H](O)[C@@H]2O)c1	0%
Cc1cccc(CC(=O)NCCC2CCN(C(=O)Nc3ccccc3)CC2)c1	1%
COc1ccc(CCN2C(=O)O[C@@H]3CN(C(=O)C4CCC4)C[C@@H]32)cc1	6%
Cc1cn2nc(-c3nc(C4CCCN(C(=O)Cc5cccc(F)c5)C4)no3)cc2c(=O)[nH]1 (stereo unspecified)	-1%
Cc1ccc(CNC(=O)c2c(C)sc3ccn(C)c(=O)c23)cc1	-1%
O=C(NCCOc1ccccc1)c1cnc2n1CCN(CC1CCOCC1)CC2	-1%[70.6 µM]
COc1ccccc1Cc1nc(-c2nnn3c2COC(c2ccc(C)cc2)C3)no1 (stereo unspecified)	10%
COc1ccc(CC(=O)N[C@@H]2c3ccccc3C3(CCNCC3)[C@H]2OC)cc1	4%
CC(C)c1nnc(C2CN(C(=O)Cc3ccccc3)CC23CCOCC3)o1 (stereo unspecified)	5%
O=C1CCN(S(=O)(=O)c2ccccc2)CCCN(C(=O)Cc2ccccc2)CCN1	1%
CCCNC(=O)C1COC2(CCN(C(=O)c3ccco3)CC2)N1C(=O)c1ccc(F)cc1 (stereo unspecified)	3%
Cc1ccc(-c2noc([C@@H]3C[C@@H](O)CN3Cc3cccc(OC(F)(F)F)c3)n2)cc1F	-12%
O=C(c1c(F)cccc1F)N1CCCC2(C1)NC(=O)N(Cc1cccc(Cl)c1)C2=O (stereo unspecified)	-9%
O=C(OCc1ccccc1)N1CCC2(CC1)C(=O)NN=C2C1CC1	-2%[70.6 µM]
COc1ccc(NC(=O)Cc2ccc(N(Cc3cccc(F)c3)C(=O)c3ccco3)cc2)cc1	4%
COc1ccc(C(=O)N[C@@H]2CCC[C@@H]2C(=O)NCc2cccnc2)cn1	3%
O=C1c2c(-c3nc(-c4ccsc4)no3)nnn2CCN1Cc1ccccc1	-4%
O=C(NCCc1ccccc1)N1CCC(c2noc(-c3ccccc3)n2)C1 (stereo unspecified)	-10%
O=C(c1ccoc1)N1CCCCC1c1nc(CCOCC2CC2)no1 (stereo unspecified)	2%
c1ccc([C@@H]2CN(Cc3cccnc3)C[C@H]2COc2ccncc2)nc1	0%
Cn1cccc1CN1CCC(N2C(=O)C(OCC3CC3)C23CCCCC3)CC1 (stereo unspecified)	-15%
O=C(Cc1ccccc1)N1CCCC(c2nn(-c3ccc(Cl)cc3)c(=O)[nH]2)C1 (stereo unspecified)	1%
CC1(C)Cc2nc(C(C)(C)C)ncc2C(NC(=O)CCCN2CCCC2=O)C1 (stereo unspecified)	4%
O=c1n(-c2ccncc2)nc2n1CCN(Cc1cccc3ccccc13)C2	u
